Anaer choline gr = inhibitors of anaerobic choline-dependent gram-negative bacterial growth. Gram-negative bacterium anaerobic choline minimal medium, absorbance growth; hits give low values; many inactives read as strong as hits in the columns shown. actives 0.2% (n = 55,000). calls only. AID 1963822;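 active means growth z-score on choline under -2 at 7 or 20 h with little or no fall on glycerol, limits in tiers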;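 further: stock transfer was 300 nL into about 50 µL; the organism is E. coli; final concentration not given here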
Anaer choline gr early = also measured in Anaer choline gr; calls as there; z-score; measured here: choline growth z-score, timepoint 1;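 score of optical density at 7 h as mean of two plates; lower means less growth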
* = called active by the depositor; i = inactive; & = joins results of further samples. A portion of the library; the hit share may differ from the screen's.

Start of the listing, in advance, 13 compounds:
Anaer choline gr | Anaer choline gr early | mol
i | 0.07 | CN1CCN(c2oc(-c3ccc(S(=O)(=O)N(C)C)cc3)nc2C#N)CC1
i | -0.34 | CCCNC(=O)CN1CCN(C(=O)c2sc3ncccc3c2-n2cccc2)CC1
i | 0.48 | Cc1oc(-c2ccc(OC(C)C)cc2)nc1Cn1nc(C)c2c(C)onc2c1=O
i | 0.45 | Cc1oc2ccc(OCc3ccccc3)cc2c1C(=O)Nc1ccc2c(c1)OCO2
i | -0.64 | O=C1OC(C(=O)O)Cc2cc(Cl)ccc21 (stereo unspecified)
i | -0.57 | CCOCC(=O)Nc1cc(C)nn1-c1ncnc2c1cnn2-c1ccc(F)cc1
i | 0.37 | O=C(CCN(CCCN1CCCC1)C(=O)c1ccc(F)cc1)N1CCNCC1
i | 0.03 | COC(=O)c1c(-c2cccc(F)c2)noc1N1CCCC1
i | 1.3 | COc1ccc(C)cc1NC(=O)c1nc2ccccc2nc1OC
i | -1.3 | O=c1cc(CN2CCN(c3ccc(F)cc3)CC2)nc2nc(-c3ccccc3)[nH]n12
i | -0.34 | c1cc(-c2noc(C3CC3)n2)cc(N2CCOCC2)n1
i | -0.08 | Cc1nc(-c2csc(S(=O)(=O)N3CCCC(C(=O)NCc4ccccn4)C3)c2)no1 (stereo unspecified)
i | -0.12 | O=C(NCCc1cnc[nH]1)c1nc(Nc2ccccc2)c2ccccc2n1

The listing, from the first entry:
Anaer choline gr | Anaer choline gr early | mol
i | 0.07 | CN1CCN(c2oc(-c3ccc(S(=O)(=O)N(C)C)cc3)nc2C#N)CC1
i | -0.34 | CCCNC(=O)CN1CCN(C(=O)c2sc3ncccc3c2-n2cccc2)CC1
i | 0.48 | Cc1oc(-c2ccc(OC(C)C)cc2)nc1Cn1nc(C)c2c(C)onc2c1=O
i | 0.45 | Cc1oc2ccc(OCc3ccccc3)cc2c1C(=O)Nc1ccc2c(c1)OCO2
i | -0.64 | O=C1OC(C(=O)O)Cc2cc(Cl)ccc21 (stereo unspecified)
i | -0.57 | CCOCC(=O)Nc1cc(C)nn1-c1ncnc2c1cnn2-c1ccc(F)cc1
i | 0.37 | O=C(CCN(CCCN1CCCC1)C(=O)c1ccc(F)cc1)N1CCNCC1
i | 0.03 | COC(=O)c1c(-c2cccc(F)c2)noc1N1CCCC1
i | 1.3 | COc1ccc(C)cc1NC(=O)c1nc2ccccc2nc1OC
i | -1.3 | O=c1cc(CN2CCN(c3ccc(F)cc3)CC2)nc2nc(-c3ccccc3)[nH]n12
i | -0.34 | c1cc(-c2noc(C3CC3)n2)cc(N2CCOCC2)n1
i | -0.08 | Cc1nc(-c2csc(S(=O)(=O)N3CCCC(C(=O)NCc4ccccn4)C3)c2)no1 (stereo unspecified)
i | -0.12 | O=C(NCCc1cnc[nH]1)c1nc(Nc2ccccc2)c2ccccc2n1
i | -0.48 | Cc1ccc(-c2c(NCCC3=CCCCC3)c(=O)c2=O)cc1
i | -0.63 | Clc1ccc(-c2noc(CN3CCC(Cc4ccccc4)CC3)n2)cc1
i | 0.7 | CC1CCC(NC(=O)C2(C)Cn3c(cc4occc43)C(=O)N2Cc2ccccc2)CC1 (stereo unspecified)
i | -1.6 | COc1ccc(C2CC(=O)C3=C(C2)Nc2ncnn2C3c2cccc(OC)c2OC)cc1 (stereo unspecified)
i | 1.4 | Cn1c(=O)n(C)c2cc(Sc3ccccc3)c(NS(=O)(=O)c3ccc(Br)cc3)cc21
i | -0.03 | O=C(CSc1nnc2c3sc(N4CCCC4)nc3ncn12)Nc1cccc(Cl)c1
i | -0.15 | O=C(N[C@H]1C[C@@H]2C[C@H]1CN2C(=O)CSc1ccccc1)c1cccs1
i | -0.34 | Cc1c(S(=O)(=O)N2CCCC2)cc(C(=O)n2ccnc2)n1C
i | 2 | O=C(CN1c2ccc(F)cc2-c2ccccc2S1(=O)=O)Nc1ccccc1Br
i | 1.5 | CCc1ccc2c(c1)NC(c1ccccc1)=NC(c1ccc(F)cc1)=N2
i | 1.7 | Cc1ccc(NS(=O)(=O)c2cc(-c3ccc(=O)[nH]n3)cc(C)c2C)cc1C
i | -0.6 | Cc1noc(-c2ccc(S(=O)(=O)N3CCC(C)CC3)s2)c1C
i | -1.1 | COc1ccccc1NC(=O)N1CCC(n2cnc3cccnc32)CC1
i | -2.1 | Cc1noc(/C=C/c2ccc(S(=O)(=O)N3CCOCC3)s2)c1NC(=O)C1CC1
i | 0.44 | CNC(=O)c1ccc(-c2nc3cc(NS(=O)(=O)c4ccc(OC)c(Cl)c4)ccc3n2C)cc1
i | -0.71 | Cn1c(=O)c(-c2noc(C(=O)N3CCc4ccccc4C3)n2)nn(-c2ccc(F)cc2)c1=O
i | -0.13 | O=C1CC(c2ccc(Cl)cc2)CC2=C1C(c1cc3c(cc1Br)OCO3)Nc1ccccc1N2 (stereo unspecified)
i | 1.2 | Cc1cc(C2CCCN2C(=O)c2cnn3c(C(F)(F)F)cc(-c4ccccc4)nc23)no1 (stereo unspecified)
i | -0.06 | Cc1ccc(C)c(C(=O)Cn2nc3n(C(C)C)c(=O)c4ccc(C(=O)NC5CCCC5)cc4n3c2=O)c1
i | -0.55 | O=C1COc2ccccc2N1Cc1nc(-c2ccc3c(c2)nnn3C2CCCC2)no1
i | 0.87 | Cc1cc(N(C)C)nc(Nc2ccc(NC(=O)C(C)(C)C)cc2)n1
i | 1.6 | Cc1ccc(-c2noc(C3CCCN3S(=O)(=O)c3cccc(Cl)c3C)n2)cc1 (stereo unspecified)
i | 1 | O=C(NCc1cccc(Cl)c1)C1CCCN(c2nc3cccnc3n(Cc3ccccc3)c2=O)C1 (stereo unspecified)
i | 0.58 | c1ccc2c(-c3nn4cnnc4s3)c[nH]c2c1
i | 0.06 | O=C(c1cnc2ccc(F)cc2c1Nc1ccccc1)N1CCCCC1
i | -1.5 | O=C(NCCc1cscn1)[C@H]1CSCN1C(=O)C1CCCCC1
i | -0.75 | COc1ccc(-c2nn(CCCC(=O)N3CCN(c4ccccn4)CC3)c(=O)c3noc(C)c23)cc1
i | 0.69 | Cc1sc(-n2cccc2CNCc2ccccc2Cl)c(C(=O)O)c1C
i | 0.76 | Cc1sc(-c2noc(C3CCC3)n2)cc1S(=O)(=O)N1CCCC(C(=O)NC2CCCC2)C1 (stereo unspecified)
i | 0.64 | CCOc1cccc(C2Nc3ccc(CC)cc3[C@H]3OCCC[C@@H]23)c1OC (stereo partly specified)
i | 0.89 | CCCc1cc(C2CCCN2Cc2cn[nH]c2-c2ccc(CC)cc2)no1 (stereo unspecified)
i | 1.1 | O=C(Nc1ccccc1)N1CCN(Cc2cc(=O)n3nc(-c4ccccc4)sc3n2)CC1
i | 0.31 | C=CCSc1nc2c(cnn2-c2ccc(F)cc2)c(=O)[nH]1
i | -0.82 | Cc1[nH]c(C)c(S(=O)(=O)Nc2ccc(Cl)cc2)c1C(=O)N1CCCC1
i | -0.54 | Cn1c(CNC(=O)C2CCC2)nc2c1CN(C(=O)c1ccc(Cl)s1)CC2
i | 0.34 | O=C(O)Cc1csc(-n2cccc2)n1
i | -0.69 | COc1ccc(-c2nn(CCCC(=O)N3CCN(c4ccccc4)CC3)c(=O)c3noc(C)c23)cc1
i | -0.13 | CCOC(=O)c1noc2ncnc(NC3CCCCC3)c12
i | 0.28 | O=C(C(Cc1ccccc1)NS(=O)(=O)c1cccc2nsnc12)N1CCN(c2ccccn2)CC1 (stereo unspecified)
i | 1.7 | O=C(NCc1ccccc1)c1cccc(Cn2c(=O)c3cccn3c3cccnc32)c1
i | -0.38 | C=CCNS(=O)(=O)c1ccc(N2C(=O)C(C)CS2(=O)=O)cc1 (stereo unspecified)
i | 0.11 | Cc1ccc(C(=O)Cn2c(=O)n3nc(C)nc3c3ccccc32)c(C)c1
i | 0.02 | O=C(c1ccoc1)N1CCC(Oc2cc(N3CCCCC3)ncn2)C1 (stereo unspecified)
i | 0.19 | Cc1cc(-c2csc(S(=O)(=O)N3CCOCC3)c2)on1
i | 0.56 | Cc1cccc(NC(=O)Cn2c(=O)cc(C(=O)NCc3ccccc3)c3ccccc32)c1C
i | -0.06 | Cc1c(C(=O)N2CCCC2)oc2c1-c1nn(CC(=O)N3CCC(Cc4ccccc4)CC3)cc1CC2
i | 0.45 | COc1cccc(-c2ccc(SCc3nc(-c4ccc(OC)cc4OC)no3)nn2)c1

Two successive entries out of the list so far, quoted:
Anaer choline gr | Anaer choline gr early | mol
i | -0.06 | Cc1c(C(=O)N2CCCC2)oc2c1-c1nn(CC(=O)N3CCC(Cc4ccccc4)CC3)cc1CC2
i | 0.45 | COc1cccc(-c2ccc(SCc3nc(-c4ccc(OC)cc4OC)no3)nn2)c1

Remaining list, next part
Anaer choline gr | Anaer choline gr early | mol
i | -0.89 | Cc1ccccc1-c1ccc(N2CCCC(C(=O)NC3CCCC3)C2)nn1 (stereo unspecified)
i | 1.1 | C=C1C[C@@]23CC[C@H]4[C@@](C)(CCC[C@@]4(C)C(=O)OC4OC(CO)C(O)C(O)C4O)[C@@H]2CC[C@]1(OC1OC(CO)C(O)C(O)C1OC1OC(CO)C(O)C(O)C1O)C3 (stereo partly specified)
i | -0.73 | CC(=O)N1CCc2cc(-c3ccc(C(=O)NCCc4c[nH]c5ccc(Cl)cc45)cc3)ccc21
i | 0.52 | COc1ccc(C2CC(=O)N(c3ccc(C)cc3)C(=O)C2)cc1OC
i | -0.22 | COc1ccccc1N(Cc1nc2nc(C)cc(=O)n2[nH]1)S(=O)(=O)c1ccc(Cl)cc1
i | -0.45 | Cc1ccc(C(C)NC(=O)CCCc2nc(-c3cc4cc(C)ccc4[nH]c3=O)no2)cc1 (stereo unspecified)
i | 0.46 | COc1ccc(C2C(C(=O)N3CCN(c4ccccc4)CC3)CCC(=O)N2c2ccc(OC)cc2)cc1 (stereo unspecified)
i | 1.2 | Cc1c(C2CCN(S(C)(=O)=O)CC2)c2ccccc2n1Cc1ccc(Cl)cc1
i | 0.6 | Cc1ccc(-c2nc(N)n(C(=O)C3CC3)n2)cc1
i | 0.19 | CCOC(=O)CC1=CC(SCC(=O)c2cc(C)ccc2C)=Nc2ccccc2N1
i | -0.47 | COc1ccccc1-n1nnc(C(=O)Nc2ccc(S(N)(=O)=O)cc2)c1C
i | -0.62 | CCCNC(=O)Cc1csc(NC(=O)c2ccccc2)n1
i | 0.06 | CN(CCO)c1nc(Nc2ccccc2)c2cnn(-c3ccccc3)c2n1
i | -0.56 | O=C(Nc1ccccc1)N1CCN(Cc2nc3cccnc3n2-c2ccccc2)CC1
i | 0.74 | C=Cc1ccc(Cn2nc3n(C)c(=O)c4ccc(C(=O)NC5CCCCC5)cc4n3c2=O)cc1
i | 1.4 | COCCn1c(C2CCCNC2)n[nH]c1=O (stereo unspecified)
i | -0.96 | CCCc1ccc(S(=O)(=O)N2CCC(c3nnnn3-c3ccc(OC)cc3)CC2)cc1
i | 0.57 | Cc1cc(C)c(S(=O)(=O)N2CCC(c3noc(-c4ccc(F)cc4)n3)CC2)c(C)c1
i | -0.67 | Cc1cccc(-c2noc(-c3nnn(Cc4nc(-c5ccccc5)oc4C)c3C)n2)c1
i | 0.74 | Cc1noc(C)c1C1CCCN1C(=O)C(C)C (stereo unspecified)
i | 0.81 | Cc1cc(N2CCCC2)n2nc(Cc3ccc(Cl)cc3)nc2n1
i | -0.72 | CC(C)Cc1nc(CNC(=O)C2CCCCC2)no1
i | -0.74 | CCOCCSc1c(C(C)C)cnc2c1c(=O)n(C)c(=O)n2C
i | -0.38 | CNC(=O)c1ccsc1NC(=O)CS(=O)(=O)c1ccc(C)cc1
i | 0.33 | CC(C)Oc1ccc(-c2noc(CN3C(=O)COc4cc(C(C)(C)C)ccc43)n2)cc1
i | 1 | COc1ccc(Cl)cc1NC(=O)N1CCN(c2nc3ccccc3n3cccc23)CC1
i | 0.17 | O=C(CCS(=O)(=O)c1ccc2c(c1)NC(=O)CS2)NCc1ccccc1Cl
i | 0.11&0.95 | CCCCC(C)(O)C/C=C/[C@H]1[C@H](O)CC(=O)[C@@H]1CCCCCCC(=O)O (stereo partly specified)
i | -0.69 | CCCN(Cc1ccc(C)cc1)Cc1cc(=O)n2nc(CC)sc2n1
i | -0.28 | NC(=O)C1CCN(c2nc3c(S(=O)(=O)c4ccccc4)nnn3c3ccsc23)CC1
i | 0.96 | O=C(c1ccc2ccnc(N3CCN(c4ccc(F)cc4)CC3)c2c1)N1CCN(c2ccccn2)CC1
i | 0.89 | COc1ccccc1CNC(=O)C1(C)Cc2ccccc2C(=O)N1c1ccc(C(C)C)cc1 (stereo unspecified)
i | 0.81 | CCc1cc2c(cc3n2CC(C)(C(=O)NC2CCCCC2)N(CCN2CCCC2)C3=O)s1 (stereo unspecified)
i | 1.6 | CCN(CC)S(=O)(=O)c1ccc2c(c1)cc(C(=O)N1CCN(c3ccccc3)CC1)n2C
i | 1.2 | CCCOc1ccc(C(=O)NCC2COc3ccccc3O2)cc1OC (stereo unspecified)
i | 0.31 | CCc1ccc(NC(=O)Cn2c3ncccc3c(=O)n2-c2ccc(C)cc2)cc1
i | 0.4 | O=C(NCc1ccc(Cl)cc1)c1ccc(Oc2ccnc(-c3ccc(F)cc3)n2)cc1
i | 1.5 | CCOc1ccc(-c2nn3c(=O)c(NC(=O)c4ccc(C(C)(C)C)cc4)cnc3o2)cc1
i | 0.5 | COc1ccc(-c2nnc(COc3cccc(NC(=O)c4nn(C)c5ccccc45)c3)o2)cc1
i | -1.1 | Cc1ccc(CN(CC(=O)N2CCN(c3ccc(F)cc3)CC2)S(=O)(=O)c2ccccc2)cc1
i | 0.48 | CCOC(=O)c1ccc(NC(=O)Cn2c(=O)n(Cc3nc(C)no3)c(=O)c3ccccc32)cc1
i | -1.3 | CCOc1ccc2nc(NC(=O)CC3Oc4ccccc4NC3=O)sc2c1 (stereo unspecified)
i | 0.64&0.29&0.2&0.3 | COc1ccccc1OCC(O)CN1CCN(CC(=O)Nc2c(C)cccc2C)CC1 (stereo unspecified)
i | -1.9 | COc1ccc(NC(=O)c2nnc(C(=O)NCC3CCCO3)s2)cc1 (stereo unspecified)
i | -0.55 | CCOc1c(Nc2ccc(OC)c(OC)c2)c(=O)c1=O
i | 0.81 | O=C1COc2ccc(S(=O)(=O)N3CCN(C(=O)c4cc5ccccc5[nH]4)CC3)cc2N1
i | 0.96 | CCc1nnc2c(NCc3ccccc3)nc3ccccc3n12

Source: PubChem BioAssay (ICCB-Longwood Screening Facility, Harvard Medical School)
